# MT1-MMP act inh = MT1-MMP (human) activation inhibition | AID 651647 | 360,000 tested, 0.061% active | GFP/RFP ratio change, % at 20 µM | P50281 | HT1080 RFP-PRO-GFP cells, GFP/RFP ratio fluorescence, overnight; percent of plate control window, DMSO zero;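 active means GFP/RFP ratio change of at least 30% with cell ATP level not reduced by more than half and red fluorescence within 50% of control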; further: strong numbers were not always called active
#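 Test system: HT1080 cells expressing an RFP-PRO-GFP fluorescent reporter construct / Compound dosing: single-point 20 µM compound, 1% DMSO / Schedule: cells overnight before dosing, compound overnight, 37 °C, 5% CO2 / Evaluation: GFP/RFP fluorescence ratio / Control set: DMSO and RFP-L50D-GFP cell wells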
# CSC inhib = blocks cancer stem cells | AID 2717 | inhibition, % at 7.5 µM | 300,000 tested, 1.1% active | cancer stem cell-like cells viability, luminescence;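 active means mean at 75% or more and at least half the replicates too; inconclusive means mean and replicates disagree; tested in HMLE shEcad cells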;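 further: 0% = median of negative and 100% = median of positive control wells; the first replicate is given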
# eIF4H inh = inhibitors of RNA binding by human eIF4H | eIF4H fluorescence polarization binding assay | inhibition, % at 35 µM | 290,000 tested, 0.94% active | AID 2012;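 active means 50% or more with normal probe brightness, or confirmed in later tests; inconclusive means above 50% with abnormal brightness, or retests that disagree; inactive means below 50% or failed in later tests; about a fifth of its hits are not listed in these tables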;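 further: calls also rest on retests at 20 µM and on dose response follow-up; 0% = protein and probe with vehicle and 100% = probe without protein; strong numbers were not always called active; many hits fall short of the cut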
# PABP FP inh = PABP-poly(A) binding inhibition. P11940. 290,000 tested, 1% active. inhibition, % at 35 µM. PABP-poly(A) RNA binding, fluorescence polarization;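 active means 50% or more with normal probe brightness, or confirmed in later tests; inconclusive means above 50% with abnormal brightness, or retests that disagree; inactive means below 50% or failed in later tests; about a fifth of its hits are not listed in these tables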;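 further: calls also rest on retests at 20 µM and on dose response follow-up; controls were probe without protein and protein plus probe with vehicle; some compounds called inactive have numbers as strong as hits; many hits fall short of the cut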
# Rce1 inh = blocks yeast Ras-converting enzyme; 290,000 tested, 0.27% active; AID 2563; Q03530; calls only; yeast membranes, quenched prenylated peptide cleavage fluorescence;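 active means fall in fluorescence gain of 50% or more versus controls, with final raw signal at or below 3038400; inconclusive means same 50% fall but final raw signal above 3038400; inactive means fall in fluorescence gain under 50%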;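 further: plate controls were neutral control wells for no effect and wells lacking membranes for full effect; tested at 10 µM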
# Target sequence (Q03530 whole entry, looked up): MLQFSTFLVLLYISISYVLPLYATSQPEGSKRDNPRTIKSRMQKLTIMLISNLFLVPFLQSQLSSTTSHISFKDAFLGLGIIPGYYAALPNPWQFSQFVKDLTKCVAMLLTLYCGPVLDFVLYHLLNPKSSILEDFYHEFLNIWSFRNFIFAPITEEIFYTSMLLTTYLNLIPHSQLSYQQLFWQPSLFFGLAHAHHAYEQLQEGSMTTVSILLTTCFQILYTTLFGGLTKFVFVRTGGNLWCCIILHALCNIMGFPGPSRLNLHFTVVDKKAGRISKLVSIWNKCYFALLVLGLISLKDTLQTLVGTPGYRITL
# Yeast UUG start = yeast start codon fidelity modulation; S. cerevisiae UUG-firefly luciferase reporter, luminescence/redox ratio; 350,000 tested, 0.13% active; activity score, % at 18.7 µM; AID 602363;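 active means replicate mean at a twofold rise or more, about +100% in these data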;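 further: firefly luciferase made from a UUG start codon reports start codon fidelity; reporter light over untreated wells divided by growth signal over untreated wells; some hits fall short of that in this replicate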
# Env fusion inh = blocks HIV Env-driven cell-cell fusion; 360,000 tested, 1.1% active; HeLa-JRFL Env/CEM21 cell fusion, luciferase; inhibition, % at 12.3 µM;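 active means mean replicate inhibition score of at least 50 and every replicate individually at or above 50; inconclusive means only one of the two criteria met; inactive means mean below 50 and not all replicates reaching 50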;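 further: 0% = plate neutral controls and 100% = maraviroc near 300 nM; one replicate is shown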
# eIF4H inh retest = recorded beside eIF4H inh, whose call it bears; inhibition, %; compound at 20 µM; confirmation average;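 mean of two retest wells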
# PABP FP inh retest = also measured in PABP FP inh; calls as there; inhibition, %; compound at 20 µM; confirmation repeats;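 mean of two retest wells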
# MT1-MMP act inh RFP = second read-out of MT1-MMP act inh, no call of its own (marks repeat the call); RFP signal change, %; measured here: RFP expression control read;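 0 = vehicle wells; hits needed this value within 50% of zero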
# * marks the source's active call; other numbers are inactive results; i = inactive; ? = inconclusive; · = not tested or not shown.
SMILES,MT1-MMP act inh,MT1-MMP act inh RFP,CSC inhib,eIF4H inh,PABP FP inh,Rce1 inh,Yeast UUG start,Env fusion inh,others
CC(C)[C@H](NC(=O)N1CC(=O)Nc2ccccc21)C(=O)N[C@H](Cc1ccccc1)C(=O)O,-3,3,-7,-16,13,i,-6,·,
Cc1cccc(C2c3[nH]c4ccccc4c3CCN2C(=O)Cc2n[nH]c(C)n2)n1 (stereo not given),-10,-5,-14,1,-9,i,·,-13,
CSCC[C@H](NC(=O)OC(C)(C)C)c1nnc(SCC(=O)Nc2ccc(C)cc2C)o1,-2,3,-14,-8,-5,i,-17,·,
CCn1c(N2CCN(C(c3ccccc3)c3ccccc3)CC2)nc2c1c(=O)[nH]c(=O)n2C,2,3,·,·,·,·,-13,-2,
Cc1nn(Cc2ccc(C(=O)N3CCOCC3)o2)c(C)c1Br,2,3,-9,11,-4,i,·,-3,
CCC(C)[C@H](NC(=O)Nc1cccc(Cl)c1)C(=O)O (stereo not given in full),9,2,-14,-1,-1,i,-12,·,
COc1ccc(N2C(=O)CC(N(CCc3ccccc3)C(=O)c3ccccc3)C2=O)cc1 (stereo not given),2,2,-5,-3,-16,i,·,0,
O=S(=O)(N1CCOCC1)N1CCN(c2ccccc2F)CC1,-7,-2,-6,0,-4,i,0,·,
C[C@H](CO)N1C[C@H](C)[C@@H](CN(C)Cc2ccc(Cl)c(Cl)c2)Oc2c(NC(=O)CCC(F)(F)F)cccc2C1=O,1,-8,·,·,·,·,4,44,
CCN(C(=O)C1CCCN(c2nc(-c3ccc(OC)cc3)no2)C1)c1ccc(OC)cc1 (stereo not given),-2,-9,·,-12,-4,i,16,22,
O=C(O)c1cccc2c1C(=O)N(c1ccccc1)C2,-2,-2,-8,8,3,i,13,-4,
Cc1c(C(=O)Nc2ccccc2)cnn1-c1ccccc1,1,-5,-1,·,·,i,·,-62,
CCNC(=O)C1(C)CCCN(C(=O)c2ccc3c(c2)C(C)(C)CCC3(C)C)C1 (stereo not given),-1,-16,·,·,·,·,6,15,
CCOC(=O)C1=C[C@@H](C(C)(C)C)N(S(=O)(=O)c2ccc(C)cc2)[C@H]1c1ccc(F)cc1,-14,-27,·,·,·,·,-2,38,
COc1cc(/C=C/C(=O)OCC(=O)NCCCc2ccccc2)cc(OC)c1OC,4,0,0,·,·,·,3,-4,
O=Cc1ccc(N2Cc3ccccc3C2)cc1,0,3,-13,-2,2,i,-12,i,
COc1cc(C(=O)O/N=C(\N)c2ccncc2)cc(OC)c1OC,22,-6,30,-4,-5,i,3,·,
Cc1ccc(C(NC(=O)NN2CCN(C)CC2)C(Cl)Cl)cc1F (stereo not given),1,1,·,-13,-10,i,-22,-15,
CN(C)S(=O)(=O)c1ccc(Cl)c(-c2nnc3n2CCCCC3)c1,1,3,4,-1,-8,i,4,16,
Cc1nc2ccccn2c1C(=O)CSc1ccccc1,2,-4,-4,-9,-5,i,·,-1,
COc1ccc(C)cc1S(=O)(=O)NC(C)c1cnn(-c2ccccn2)c1C (stereo not given),-2,-2,2,-9,-4,i,2,-14,
O=[N+]([O-])c1ccc(C=Nc2cccc3ccccc23)s1,-5,-4,7,-1,4,i,-12,·,
COc1ccc(NC(=S)N2CCCC(CO)C2)c(OC)c1 (stereo not given),-3,0,-4,-6,-2,·,·,-7,
O=C(CSc1nc2ccc(Cl)cc2[nH]1)Nc1ccc2c(c1)CCC2,1,0,23,-16,102,i,·,-2,eIF4H inh retest=36;PABP FP inh retest=29
COCCN1C(=O)N[C@@H](c2ccccc2)[C@H](C(=O)OC)[C@H]1C,2,2,1,·,·,i,-22,12,
# (next part)
SMILES,MT1-MMP act inh,MT1-MMP act inh RFP,CSC inhib,eIF4H inh,PABP FP inh,Rce1 inh,Yeast UUG start,Env fusion inh,others
COn1c(-c2ccccc2)nc2c1CCc1nonc1-2,-3,5,-11,5,2,i,-29,·,
O=C(c1ccc(NC2=NC3CS(=O)(=O)CC3S2)cc1)N(CCO)Cc1ccccc1 (stereo not given),1,5,-2,-4,14,i,-27,-8,
CCOC(=O)CNC(=O)CSc1nnc(-c2ccccc2OC)n1CC,2,0,-7,-8,2,i,-22,·,
Cn1c(CCc2ccccc2)nnc1SCC(=O)N1CCOCC1,5,5,-2,1,6,i,-19,?,
c1ccc(NCCC2OCC3(CO2)COC(CCNc2ccccc2)OC3)cc1 (stereo not given),2,1,·,·,·,·,-5,-3,
COc1ccc(C(=O)CC(=O)C(=O)Nc2ccc(Cl)cc2)cc1,-5,-1,6,8,9,i,-15,5,
COc1ccc(-c2sc3ccc(N4CCOCC4)cc3c2C#CC(C)(C)O)cc1,8,0,87*,·,·,·,71,·,
COc1ccc(-c2cc(C(=O)Nc3ccc(OC)cc3OC)no2)cc1,4,0,-6,-9,-9,i,-11,-19,
Cc1ccc(-n2c(SCC(N)=O)nnc2-c2ccco2)cc1,1,-1,-11,4,-5,i,-11,1,
NC(=O)C[C@@H]1N[C@]2(C(=O)Nc3ccccc32)[C@@H]2C(=O)N(c3cc(C(F)(F)F)ccc3Cl)C(=O)[C@H]12,-3,2,·,-7,3,·,1,16,
Cc1ccc(S(=O)(=O)CCN2CCC(O)(c3ccccc3)CC2)cc1,0,0,-3,-11,-2,i,-6,15,
CNC(=O)C(=O)Nc1ccc(C)cc1C,2,7,3,-3,-3,i,·,6,
Cc1ccsc1/C=N/N1CCN(c2ccccn2)CC1,-2,2,10,1,-8,i,-7,-4,
CCOC(=O)c1cc(S(=O)(=O)NCC2CCN(Cc3cccc(C)c3)CC2)cn1C,0,-3,-11,·,·,i,73,4,
CC(=O)Nc1ccccc1C(=O)C(=O)Nc1ccc(F)c(Cl)c1,-2,-4,-2,12,-7,i,-34,-5,
CC(C)CNc1ncnc2c1ncn2[C@H]1CN(C2CCCC2)C[C@@H](CO)O1,2,7,·,·,·,·,-6,1,
O=C(c1cc(-c2ccc(Cl)cc2)on1)N1CCOCC1,2,2,-1,-17,-2,i,-38,-98,
COc1ccc2c(c1)[nH]c1c(=O)n(CCCn3ccnc3)cnc12,-5,-2,4,-10,-4,i,1,·,
CCC(CC)NC(=O)c1cccc([N+](=O)[O-])c1C,3,2,-2,7,-4,i,·,-9,
O=C(NC1CCCCCCC1)c1ccc(CNc2c(N3CCOCC3)c(=O)c2=O)cc1,2,1,-1,-7,-15,i,-3,12,
Cc1ccc(OCCn2cc(/C=C/C(=O)O)c3ccccc32)cc1,-1,0,·,0,2,i,-20,9,
Cc1ccc(-n2c(SCC(=O)Nc3ccc4c(c3)OCO4)nnc2-c2cccs2)cc1,0,-5,1,-10,-2,i,-25,·,
COc1ccc(NC(=O)c2ccco2)cc1NC(=O)c1cccc(OC(C)C)c1,0,-5,8,-1,4,i,0,113*,
Cc1ccsc1-c1nc(CSCC(=O)N2CCN(c3ccccc3)CC2)c(C)o1,-4,-8,·,-1,4,i,-17,·,
Cc1cccc(OCCC(=O)Nc2c(C)n(C)n(-c3ccccc3)c2=O)c1,0,1,5,3,-3,·,1,·,

# By substructure, those above containing a tert-butyl group.
SMILES,MT1-MMP act inh,MT1-MMP act inh RFP,CSC inhib,eIF4H inh,PABP FP inh,Rce1 inh,Yeast UUG start,Env fusion inh,others
CSCC[C@H](NC(=O)OC(C)(C)C)c1nnc(SCC(=O)Nc2ccc(C)cc2C)o1,-2,3,-14,-8,-5,i,-17,·,
CCOC(=O)C1=C[C@@H](C(C)(C)C)N(S(=O)(=O)c2ccc(C)cc2)[C@H]1c1ccc(F)cc1,-14,-27,·,·,·,·,-2,38,

# (further entries)
SMILES,MT1-MMP act inh,MT1-MMP act inh RFP,CSC inhib,eIF4H inh,PABP FP inh,Rce1 inh,Yeast UUG start,Env fusion inh,others
COc1ccc(-c2cc(C(=O)NC3=NCCS3)c3ccccc3n2)cc1OC,-4,-3,-12,0,4,i,·,2,
CC(=O)c1ccc(N2CCN(Cc3cc(=O)n4c(-c5ccccc5)csc4n3)CC2)cc1,-11,-20,·,·,·,·,-6,18,
N/C(=N\OC(=O)c1ccccc1Br)c1ccc([N+](=O)[O-])cc1,0,-3,-2,2,-5,i,-14,-56,
O=C(CN1CCN(S(=O)(=O)c2ccccc2)CC1)NC1CC1,2,3,-30,-4,5,i,-13,-53,
Fc1ccc(-[n+]2nc(Nc3ccccc3)sc2-c2ccc(OCc3ccccc3)cc2)cc1,-2,-4,16,-3,-1,i,-17,-13,
CCOc1ccc(C(=O)CCC(=O)N2CCC(C(=O)OC)CC2)cc1,-6,1,-8,85,56,i,-6,14,eIF4H inh retest=-13;PABP FP inh retest=31
O=C(Cc1ccccc1)Nc1ccccc1C(=O)O,-2,3,-8,-3,6,i,-18,-31,
COc1ccccc1NC(=O)Nc1nc(CC(=O)NCc2ccccn2)cs1,-1,-6,·,·,·,i,-7,-5,
O=C1c2cccc([N+](=O)[O-])c2C(=O)N1CCO,0,3,-18,9,-1,·,·,10,
CCCCCOC(=O)C1[C@H]2C(=O)N(c3ccccc3CC)C[C@]23C=C[C@H]1O3 (stereo not given in full),4,6,-19,-2,2,i,0,·,
Cc1cc2ccccc2cc1C(=O)c1ccccc1,0,0,·,·,·,·,-10,19,
COc1cccc(-c2nc(CSCC(=O)NCC3CCCO3)c(C)o2)c1 (stereo not given),0,-3,0,-5,-1,i,-21,7,

# An excerpt from the list above, for reference:
SMILES,MT1-MMP act inh,MT1-MMP act inh RFP,CSC inhib,eIF4H inh,PABP FP inh,Rce1 inh,Yeast UUG start,Env fusion inh,others
COc1ccc(-c2cc(C(=O)NC3=NCCS3)c3ccccc3n2)cc1OC,-4,-3,-12,0,4,i,·,2,
CC(=O)c1ccc(N2CCN(Cc3cc(=O)n4c(-c5ccccc5)csc4n3)CC2)cc1,-11,-20,·,·,·,·,-6,18,
N/C(=N\OC(=O)c1ccccc1Br)c1ccc([N+](=O)[O-])cc1,0,-3,-2,2,-5,i,-14,-56,
O=C(CN1CCN(S(=O)(=O)c2ccccc2)CC1)NC1CC1,2,3,-30,-4,5,i,-13,-53,
Fc1ccc(-[n+]2nc(Nc3ccccc3)sc2-c2ccc(OCc3ccccc3)cc2)cc1,-2,-4,16,-3,-1,i,-17,-13,

# Source: PubChem BioAssay (several laboratories)
